From PubChem
BJeLR viability: MLPCN primary cell-based screen for lethality selective to Ras in HRASV12 cells | BJeLR (HRASV12) viability, CellTiter-Glo ATP luminescence, 48 h; reference of the scale not given here | inhibition, % (no concentration beside the values) | hit rate 0.17% among 300,000 | AID 1554, 2009;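 active = replicate mean above 50%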;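 also: 50 nL library stock added to about 25 µL; numbers are from one replicate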
Autofluor counter: flagged as autofluorescent in microsphere protease counterscreen. fluorescence intensity (concentration not given with the values). compound autofluorescence counterscreen, microsphere flow cytometry; active compounds read high. hit rate 3.1% among 360,000. AID 624483;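 active = at least 3 SD above the mean of all compounds, about 16000 in these data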;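 also: 100 nL of 1 mM stock went into each well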
Sa RN4220 lethal: growth inhibition of S. aureus RN4220, primary screen, OD600; 16 h; inhibition, % (test concentration not listed); hit rate 0.33% among 330,000;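 active = z-score of -3 or lower and OD600 up to 0.18 on both plates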;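 also: plate controls were untreated cells for no effect and reference antibiotic for full effect; stock transfer was 100 nL into about 80 µL; one replicate is shown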
Mtb hypoxia rep: PubChem AID 1159583; hit rate 0.1% among 300,000; M. tuberculosis hypoxia-regulated fluorescent reporter, fluorescence; fluorescence inhibition, % (test concentration not listed);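 active = 35 to 45% if threefold the growth effect, above 45% if 1.5-fold the growth effect; inactive = the rest, general growth blockers included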;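 also: wells of about 50 µL received 100 nL stock; 0% = vehicle wells and 100% = reference inhibitor wells; whole bacteria with a GFP reporter of the hypoxia response; strong numbers were not always called active; many hits fall short of the cut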
PrP UTR inh: inhibition of PrP 5' UTR reporter expression. hit rate 0.35% among 340,000. inhibition, % (concentration not given with the values). cell-based PrP 5' UTR mRNA reporter, plate reader;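 active = every replicate at 50% or more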;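 also: 0 = median of the neutral control wells; tested in H4 reporter cells; numbers are from one replicate; inactives centre near -14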
Sa ugtP lethal: growth inhibition of ugtP-null S. aureus, primary screen, RN4220 ugtP deletion, OD600 | AID 1259309, 2017 | hit rate 0.54% among 330,000 | growth inhibition, % (no concentration beside the values) | 16 h; some inactives read as strong as hits;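 active = z-score under -3 and OD600 up to 0.15 on both plates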;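 also: plate controls were untreated wells for no effect and antibiotic for full effect; wells of about 80 µL received 100 nL stock; the first replicate is given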
Mtb hypoxia rep growth: also measured in Mtb hypoxia rep; calls as there; growth inhibition, %; measured here: M. tuberculosis growth (absorbance);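 0% = vehicle and 100% = reference antibiotic; read after six days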
An asterisk follows results filed as active. Compounds as they come; about 4.1% have a hit in one of these screens.

How did O=C(Oc1ccccc1-c1nnco1)c1ccc(Cl)cc1 do in these assays?
BJeLR viability: 0; Autofluor counter: 2818; Sa RN4220 lethal: -8.6; Mtb hypoxia rep: 0; PrP UTR inh: -41; Sa ugtP lethal: -9; Mtb hypoxia rep growth: 11

How did CCc1ccc(C(=O)CSc2n[nH]c(-c3ccncc3)n2)cc1 do in these assays?
BJeLR viability: -2; Autofluor counter: 7441; Sa RN4220 lethal: 9.4; Mtb hypoxia rep: 3; PrP UTR inh: -11; Sa ugtP lethal: 9; Mtb hypoxia rep growth: -1

What do the screens show for `Cc1ccnc(-n2c(C)cc(/C=C3\C(=O)NC(=S)N(C)C3=O)c2C)c1`?
BJeLR viability: -3; Autofluor counter: 8389; PrP UTR inh: -19

Results for Cc1ccc(/C=N/NC(=O)c2cccc(S(=O)(=O)Nc3ccccc3Cl)c2)s1 ?
BJeLR viability: -6; Autofluor counter: 9376; PrP UTR inh: -26

What do the screens show for `CCc1cc(C(=O)N2CCCC(CCC(=O)N3CCN(c4ccccn4)CC3)C2)no1` (stereo not given)?
BJeLR viability: -11; Autofluor counter: 5007; Sa RN4220 lethal: 2.9; Mtb hypoxia rep: 9; PrP UTR inh: -27; Sa ugtP lethal: 1; Mtb hypoxia rep growth: 6

How did CC1CC(C)(C)N(C(=O)CN2CCN(C)CC2)c2ccccc21 (stereo not given) do in these assays?
BJeLR viability: -3; Sa RN4220 lethal: 6.3; Mtb hypoxia rep: 22; PrP UTR inh: 1; Sa ugtP lethal: 6; Mtb hypoxia rep growth: 2

How did CCC(Oc1ccccc1)C(=O)Nc1ccccn1 (stereo not given) do in these assays?
BJeLR viability: 1; Autofluor counter: 9690; Sa RN4220 lethal: 5.1; Mtb hypoxia rep: 7; PrP UTR inh: -21; Sa ugtP lethal: 7; Mtb hypoxia rep growth: 9

How did Cc1cc(C(=O)Nc2ccc(S(=O)(=O)N3CCCC3)cc2)no1 do in these assays?
BJeLR viability: 0; Autofluor counter: 4532; Sa RN4220 lethal: -1.0; Mtb hypoxia rep: 14; PrP UTR inh: -19; Sa ugtP lethal: 1; Mtb hypoxia rep growth: 5

What do the screens show for `Nc1ccc(S(=O)(=O)NC2(C(F)(F)F)NC(=O)N(c3ccccc3F)C2=O)cc1` (stereo not given)?
BJeLR viability: -3; Autofluor counter: 3727; Sa RN4220 lethal: 0.9; Mtb hypoxia rep: 1; PrP UTR inh: 15; Sa ugtP lethal: 2; Mtb hypoxia rep growth: 4

What do the screens show for `CCOC(=O)C1CCN(C(=O)Nc2cccc(Cl)c2)CC1`?
BJeLR viability: -4; Autofluor counter: 9002; Sa RN4220 lethal: -2.0; Mtb hypoxia rep: -12; PrP UTR inh: -18; Sa ugtP lethal: -6; Mtb hypoxia rep growth: -2

What do the screens show for `COc1ccc(NC(=O)NCCCN2CCc3ccccc3C2)cc1`?
BJeLR viability: -2; Autofluor counter: 5353; Sa RN4220 lethal: 1.1; PrP UTR inh: -21; Sa ugtP lethal: 3

What do the screens show for `COc1ccc(NC(=O)CCCc2ccccc2)c(OC)c1`?
BJeLR viability: -7; Autofluor counter: 3247; Sa RN4220 lethal: 5.3; Mtb hypoxia rep: 1; PrP UTR inh: -6; Sa ugtP lethal: 0; Mtb hypoxia rep growth: 0

How did COc1ccccc1N1CCN(C(c2cccs2)C(C)NC(=O)C(=O)N2CCCCC2)CC1 (stereo not given) do in these assays?
BJeLR viability: 10; Autofluor counter: 4481; Sa RN4220 lethal: 3.3; Mtb hypoxia rep: 3; PrP UTR inh: 0; Sa ugtP lethal: 3; Mtb hypoxia rep growth: 11

What do the screens show for `COc1ccc2cc(Br)ccc2c1CC(=O)NC1CC(C)(C)NC(C)(C)C1`?
BJeLR viability: -1; Autofluor counter: 9894; Sa RN4220 lethal: -3.4; Mtb hypoxia rep: 6; PrP UTR inh: -13; Sa ugtP lethal: 0; Mtb hypoxia rep growth: 8

How did CCOC(=O)C1=C(C)N=c2sc(=Cc3ccc(OCC(=O)O)c(OC)c3)c(=O)n2C1c1ccc(Cl)cc1 (stereo not given) do in these assays?
Sa RN4220 lethal: 33; Mtb hypoxia rep: 13; Sa ugtP lethal: 24; Mtb hypoxia rep growth: 11

Results for Cc1[nH]n(-c2ccccc2)c(=O)c1/C=C1\C=NN=C1c1ccccc1 ?
BJeLR viability: -3; Autofluor counter: 3914; PrP UTR inh: -22

What do the screens show for `Cc1cccnc1CCNCc1c(C(=O)N2C[C@@H](C)O[C@@H](C)C2)nc2ccc(Cl)cn12`?
BJeLR viability: 1; Autofluor counter: 4816; Sa RN4220 lethal: 4.8; Mtb hypoxia rep: 11; PrP UTR inh: 0; Sa ugtP lethal: 9; Mtb hypoxia rep growth: 4

What do the screens show for `NC(N)=NN=Cc1ccc(Cl)c(Cl)c1`?
Sa RN4220 lethal: -16; Mtb hypoxia rep: 9; Sa ugtP lethal: -21; Mtb hypoxia rep growth: 10

What do the screens show for `O=C(NC1CCCN(Cc2ccc(Cl)cc2)C1)c1cccc(F)c1` (stereo not given)?
BJeLR viability: -4; Autofluor counter: 4791; Sa RN4220 lethal: 1.8; Mtb hypoxia rep: 3; PrP UTR inh: -16; Sa ugtP lethal: 9; Mtb hypoxia rep growth: 5

How did COC(=O)c1ccc(Cl)c(NC(=O)CN(c2ccc(OC)c(OC)c2)S(C)(=O)=O)c1 do in these assays?
BJeLR viability: -8; Autofluor counter: 2153; PrP UTR inh: -19

How did CSc1ccccc1NC(=O)c1cc2ncc(Br)cn2n1 do in these assays?
BJeLR viability: 2; Autofluor counter: 4890; PrP UTR inh: -54

Results for CC(=O)Cn1c(N2CCC(Cc3ccccc3)CC2)nc2c1c(=O)[nH]c(=O)n2C ?
BJeLR viability: 4; Autofluor counter: 3583; Sa RN4220 lethal: 2.1; PrP UTR inh: 3; Sa ugtP lethal: 11

Results for Fc1cccc(CCN2CCNC[C@H]2Cc2cccc3ccccc23)c1 ?
BJeLR viability: -11; Autofluor counter: 5591; PrP UTR inh: -4

Results for COc1ccc(CN2CCN(CCCc3ccccc3)C(CCO)C2)c(OC)c1 (stereo not given) ?
BJeLR viability: -11; Sa RN4220 lethal: 2.6; Mtb hypoxia rep: 19; PrP UTR inh: 15; Sa ugtP lethal: 4; Mtb hypoxia rep growth: 5

Of the compounds above, two contain bromine.
What do the screens show for `COc1ccc2cc(Br)ccc2c1CC(=O)NC1CC(C)(C)NC(C)(C)C1`?
BJeLR viability: -1; Autofluor counter: 9894; Sa RN4220 lethal: -3.4; Mtb hypoxia rep: 6; PrP UTR inh: -13; Sa ugtP lethal: 0; Mtb hypoxia rep growth: 8

How did CSc1ccccc1NC(=O)c1cc2ncc(Br)cn2n1 do in these assays?
BJeLR viability: 2; Autofluor counter: 4890; PrP UTR inh: -54

Going on with the list.
Results for CCCNC(=O)c1cc(Cl)c(NC(=O)C2=CSCCO2)cc1OC ?
BJeLR viability: -10; Autofluor counter: 5254; Sa RN4220 lethal: 3.4; Mtb hypoxia rep: 6; PrP UTR inh: -41; Sa ugtP lethal: -7; Mtb hypoxia rep growth: -1

Results for CC(C)Cc1nc2oc3c(=O)[nH]cnc3c2c2c1CCCC2 ?
BJeLR viability: -2; Autofluor counter: 2472; Sa RN4220 lethal: 9.8; Mtb hypoxia rep: 1; PrP UTR inh: -24; Sa ugtP lethal: 0; Mtb hypoxia rep growth: 6

How did CCCOc1ccc2[nH]c(C(=O)NN=Cc3cc(OC)c(OC)c(OC)c3)cc2c1 do in these assays?
Sa RN4220 lethal: 17; Mtb hypoxia rep: 17; Sa ugtP lethal: -12; Mtb hypoxia rep growth: 6

Results for COc1cc2ccccc2cc1C(=O)Nc1nc(C)c(C(C)=O)s1 ?
BJeLR viability: -1; Autofluor counter: 5742; Sa RN4220 lethal: 1.3; Mtb hypoxia rep: 10; PrP UTR inh: -95; Sa ugtP lethal: 14; Mtb hypoxia rep growth: 2

How did CCOc1ccc2ncc(S(=O)(=O)c3ccccc3)c(N3CCC4(CC3)OCCO4)c2c1 do in these assays?
BJeLR viability: -2; Sa RN4220 lethal: 1.0; Mtb hypoxia rep: 8; Sa ugtP lethal: 1; Mtb hypoxia rep growth: 3

How did N#Cc1ccsc1NC(=O)CSc1nnc(-c2ccccc2)o1 do in these assays?
BJeLR viability: 3; Sa RN4220 lethal: 0.7; PrP UTR inh: -1; Sa ugtP lethal: -7

How did COc1cccc(NC(=O)Nc2cccnc2)c1 do in these assays?
BJeLR viability: -8; Autofluor counter: 4799; Sa RN4220 lethal: 2.3; Mtb hypoxia rep: -7; PrP UTR inh: -11; Sa ugtP lethal: 0; Mtb hypoxia rep growth: 5

How did O=C(Nc1ccc(S(=O)(=O)Nc2ncccn2)cc1)c1ccccc1NS(=O)(=O)c1ccc(F)cc1 do in these assays?
BJeLR viability: -9; Autofluor counter: 2355; Sa RN4220 lethal: -0.3; Mtb hypoxia rep: 16; PrP UTR inh: -11; Sa ugtP lethal: 5; Mtb hypoxia rep growth: 10

Results for C[C@]12CC[C@H](O)CC1=CCC1C2CC[C@@]2(C)C1CC[C@@H]2NC(=O)[C@@H](N)CO (stereo not given in full) ?
Autofluor counter: 3675; Sa RN4220 lethal: 1.3; Mtb hypoxia rep: 3; PrP UTR inh: 12; Sa ugtP lethal: 0; Mtb hypoxia rep growth: 8

Results for COC(=O)c1cc(CSc2nc3ccc(C)cc3[nH]2)oc1C ?
BJeLR viability: -2; Autofluor counter: 3038; Sa RN4220 lethal: -16; Mtb hypoxia rep: 24; PrP UTR inh: -20; Sa ugtP lethal: -13; Mtb hypoxia rep growth: 9

Results for COc1ccccc1N1CCN(C(=O)c2ccc(Cn3c(=S)[nH]c4cc5c(cc4c3=O)OCO5)cc2)CC1 ?
BJeLR viability: -5; Autofluor counter: 4789; Sa RN4220 lethal: -8.5; Mtb hypoxia rep: -5; PrP UTR inh: -24; Sa ugtP lethal: 0; Mtb hypoxia rep growth: 19

How did Cc1nn(Cc2c(F)c(F)c(F)c(F)c2F)c(C)c1NC(=O)c1ccc(COc2ccc(F)cc2)o1 do in these assays?
BJeLR viability: 3; Autofluor counter: 10343; Sa RN4220 lethal: 1.8; Mtb hypoxia rep: 9; PrP UTR inh: -14; Sa ugtP lethal: -5; Mtb hypoxia rep growth: 4

Reprinted from the part before: 2 entries, then new ones.
Results for COc1ccccc1N1CCN(C(=O)c2ccc(Cn3c(=S)[nH]c4cc5c(cc4c3=O)OCO5)cc2)CC1 ?
BJeLR viability: -5; Autofluor counter: 4789; Sa RN4220 lethal: -8.5; Mtb hypoxia rep: -5; PrP UTR inh: -24; Sa ugtP lethal: 0; Mtb hypoxia rep growth: 19

How did Cc1nn(Cc2c(F)c(F)c(F)c(F)c2F)c(C)c1NC(=O)c1ccc(COc2ccc(F)cc2)o1 do in these assays?
BJeLR viability: 3; Autofluor counter: 10343; Sa RN4220 lethal: 1.8; Mtb hypoxia rep: 9; PrP UTR inh: -14; Sa ugtP lethal: -5; Mtb hypoxia rep growth: 4

Results for CCOC(=O)c1cc(NC(=O)c2ccccc2)c(=O)n2c1oc1ccccc12 ?
BJeLR viability: -4; Autofluor counter: 3172; Sa RN4220 lethal: 5.3; Mtb hypoxia rep: 14; PrP UTR inh: 10; Sa ugtP lethal: -8; Mtb hypoxia rep growth: 2

Results for N=C1CCC(=N)c2c1c(O)c1ccccc1c2O ?
BJeLR viability: 11; Autofluor counter: 3931; PrP UTR inh: -21

Results for C=C1CCN([C@H](C(=O)NCc2ccc(Cl)c(Cl)c2)C(C)C)S(=O)(=O)c2ccccc21 ?
BJeLR viability: -3; Autofluor counter: 3908; PrP UTR inh: -3

What do the screens show for `CN(C(=O)COC(=O)c1cc(NS(=O)(=O)c2cc([N+](=O)[O-])ccc2Cl)ccc1O)C1CCCCC1`?
BJeLR viability: -10; Autofluor counter: 2158; Sa RN4220 lethal: 2.7; Mtb hypoxia rep: 9; PrP UTR inh: -15; Sa ugtP lethal: -7; Mtb hypoxia rep growth: 1

What do the screens show for `COc1ccc(O)c(CNc2ccccc2F)c1`?
BJeLR viability: 3; Autofluor counter: 4119; Sa RN4220 lethal: 2.7; Mtb hypoxia rep: -5; PrP UTR inh: -30; Sa ugtP lethal: 3; Mtb hypoxia rep growth: 4

Results for Cc1cc(C(=O)COC(=O)CNC(=O)c2ccccc2)c(C)n1CC1CCCO1 (stereo not given) ?
BJeLR viability: -6; Autofluor counter: 4458; Sa RN4220 lethal: 0.8; Mtb hypoxia rep: 6; PrP UTR inh: 1; Sa ugtP lethal: 13; Mtb hypoxia rep growth: 5

How did O=C(Nc1ncccc1O)c1ccc(S(=O)(=O)N2CCCC2)cc1 do in these assays?
BJeLR viability: -9; Autofluor counter: 5572; Sa RN4220 lethal: 2.0; Mtb hypoxia rep: 8; PrP UTR inh: -27; Sa ugtP lethal: 1; Mtb hypoxia rep growth: 11
